# NPYLR7 agonist – activates Aedes aegypti NPYLR7 receptor. HEK293T NPYLR7/Galpha15, GCaMP6s calcium fluorescence. activation, % at 10 µM. 270,000 compounds, 0.15% hits. AID 1259423; in the data active means activation above about 40%;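 further: 0% = vehicle and 100% = reference agonist at the receptor; some compounds past the cut are filed as inactive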
# NPYLR7 agonist max-min – recorded beside NPYLR7 agonist, whose call it bears; activation, %; measured here: Max-Min RFU normalised activation; some inactives read as strong as hits;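 span of the calcium signal over five minutes; 0% = vehicle and 100% = native peptide agonist; compound fluorescence can raise it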
# * hit, by the source's call; & = joins results of further samples. This is a subset; the hit share may differ from the screen's.
SMILES,NPYLR7 agonist,NPYLR7 agonist max-min
CN1CC2([N+](=O)[O-])C=C(C(N)=O)CC([N+](=O)[O-])(C1)C2 (stereo not drawn),-3,-3
O=C(NCCc1cccc(Cl)c1)N1CCc2ccccc2C1,0,-1
CC(C)CC(C(=O)NNC(=O)c1ccco1)N1C(=O)C2CC=CCC2C1=O (stereo not drawn),0,35
COc1nc(-c2ccc(Cl)c(Cl)c2)n(-c2cccc(NC(=O)CC(C)C)c2)n1,-3,3
Cc1ccc(S(=O)(=O)c2cc(O)ccc2O)cc1C,-8,-8
O=C(Cn1cnnn1)N1CCN(S(=O)(=O)c2ccc(Br)s2)CC1,3,3
CC12CCC(C(=O)Oc3ccc4ccccc4c3)(CC1=O)C2(C)C (stereo not drawn),7,8
COc1ccc(Cl)cc1C(=O)Nc1c(C)nc2ccccn2c1=O,3,-1
COCC(=O)N1CCN(C(=O)c2ccc(C)o2)CC1,6,7
O=C(c1ccc2c(c1)OCCCO2)N1CCN(S(=O)(=O)c2ccc(F)cc2F)CC1,-1,21
O=c1cc(O)nc(-c2ccccc2)[nH]1,5,11
CCc1ccc(S(=O)(=O)Nc2ccc(-c3ccc(N4CCCC4)nn3)cc2)s1,4,4
COCc1c(C(=O)OCc2cc(=O)oc3cc4c(cc23)CCC4)oc2ccccc12,-4,-6
Cn1ccc(C(=O)Nc2cnn(-c3ccccc3Cl)c2)cc1=O,5,0
C=CCSc1nc(-c2ccccc2)cc(-c2ccc(OC)cc2)c1C#N,-2,-9
CN(C)CCN(Cc1c(-c2ccccc2)noc1N1CCCC1)C(=O)c1ccc(Cl)cc1,-6,5
Nc1nn(S(=O)(=O)c2ccccc2)cc1-c1cccc(F)c1,0,-1
CCCCCC(=O)Nc1nnc(SCC(=O)c2ccc(Br)cc2)s1,1,9
C=CCn1c(SCn2nnc3ccccc3c2=O)nc2ccccc2c1=O,-2,-6
CCN(CC)C(=O)Oc1ccc2c(ccn2Cc2cccc(C)c2)c1NC(=O)C1CCCCC1,-2,4
O=C(CCN1CCCCCCC1)NCCc1nc(-c2cccnc2)no1,18,4
CCc1nc2n(n1)C(=O)C(C(c1ccc(C)cc1)N1CCC3(CC1)OCCO3)S2 (stereo not drawn),-7,-12
COc1cccc(CNc2nc(NCC3CC3)nc3ccsc23)c1OC,5,1
O=c1cc(CN2CCN(CCn3cncn3)CC2)c2cccc3c2n1CCC3,5,3
CN(c1ccc(F)c(F)c1)S(=O)(=O)c1ccc(C(=O)O)cc1,4,-1
# New compounds follow:
SMILES,NPYLR7 agonist,NPYLR7 agonist max-min
CCCNC(=O)CSc1ccc2ccccc2n1,0,3
CCCNC(=O)C1(C)CCN(CCC(=O)c2ccc(Br)cc2)C1 (stereo not drawn),2,5
CN(C(=O)c1cc(Cn2ccc3ccccc32)[nH]n1)C1Cc2ccccc2C1,4,-4
CCC(C(=O)N(Cc1ccco1)Cc1cc(NC(=O)c2cccc(F)c2)ccc1N(C)C)c1ccccc1 (stereo not drawn),-3,1
CN(CC(=O)c1c(N)n(C2CC2)c(=O)[nH]c1=O)c1ccc(F)cc1,1,5
COc1ccccc1-n1cc(C(=O)N(C)Cc2cc(C3CC3)n[nH]2)cn1,-2,-3
COc1ccc(C=C2N=C(c3cccs3)OC2=O)cc1,1,1
CCC(C)N=Cc1c(NCc2ccco2)nc2c(C)cccn2c1=O (stereo not drawn),1,1
Cc1nc(N)nc(C)c1CC(=O)N1CCCC(Nc2ccccc2)C1 (stereo not drawn),9,0
COc1ccc(Br)cc1S(=O)(=O)N1CCc2ccccc21,4,2
Cc1cc(C(=O)N2CCC3(CCCO3)CC2)c2cnn(C(C)C)c2n1,0,0
CC(C)C(NC(=O)C1CCCN1S(C)(=O)=O)c1cccs1 (stereo not drawn),-3,-6
COCc1ccccc1C(=O)OCC1CCCN1c1ccc(C)nn1 (stereo not drawn),2,3
CCOC(=O)c1c(C)c(C(=O)CN(C(=O)Nc2ccccc2OCC)C2CC2)c(C)n1CC,14,11
CC(=O)O[C@@H](C)C(=O)Nc1cc(-c2onc3c2CCCC3)ccc1C,3,-2
Cc1ccc(OCC2CN(C(=O)CCc3c[nH]c4ccccc34)CCO2)cc1 (stereo not drawn),26,37
N#Cc1ccccc1S(=O)(=O)N1CCN(CCCOC(c2ccc(Cl)cc2)c2ccc(Cl)cc2)CC1,-2,7
CCCc1cnc2c(c1SCC(=O)Nc1nccs1)c(=O)n(C)c(=O)n2C,6,6
CCN1C(=O)C(=Cc2ccc(OC)c(OC)c2)SC1=S,-3,-5
CC1=CC(=O)C2=C(C)C[C@@H]3OC(=O)[C@@H](C)[C@H]3C=C12,2,1
O=c1c[n+]([O-])c2ccccc2n1OCc1c(F)cccc1F,-5,-5
CC(=O)N1CCN(CCNC(=O)c2cc3ccccc3nc2N2CCCC2)CC1,1,1
NC(=O)COc1ccc2c(-c3cc4cc(Cl)ccc4oc3=O)cc(=O)oc2c1,-3,6
Nc1ccnc2c(-c3cccc(C(=O)O)c3)cccc12,1,-1
O=C(Nc1ccc(Br)cc1)N(CC(=O)N1c2ccccc2-n2cccc2C1c1ccc(F)cc1)C1CC1 (stereo not drawn),1,6

# An excerpt from above in order of formula weight, high to low:
SMILES,NPYLR7 agonist,NPYLR7 agonist max-min
O=C(Nc1ccc(Br)cc1)N(CC(=O)N1c2ccccc2-n2cccc2C1c1ccc(F)cc1)C1CC1 (stereo not drawn),1,6
N#Cc1ccccc1S(=O)(=O)N1CCN(CCCOC(c2ccc(Cl)cc2)c2ccc(Cl)cc2)CC1,-2,7
CCC(C(=O)N(Cc1ccco1)Cc1cc(NC(=O)c2cccc(F)c2)ccc1N(C)C)c1ccccc1 (stereo not drawn),-3,1
CCOC(=O)c1c(C)c(C(=O)CN(C(=O)Nc2ccccc2OCC)C2CC2)c(C)n1CC,14,11
CCCc1cnc2c(c1SCC(=O)Nc1nccs1)c(=O)n(C)c(=O)n2C,6,6
NC(=O)COc1ccc2c(-c3cc4cc(Cl)ccc4oc3=O)cc(=O)oc2c1,-3,6
CC(=O)N1CCN(CCNC(=O)c2cc3ccccc3nc2N2CCCC2)CC1,1,1
CCCNC(=O)C1(C)CCN(CCC(=O)c2ccc(Br)cc2)C1 (stereo not drawn),2,5
COc1ccc(Br)cc1S(=O)(=O)N1CCc2ccccc21,4,2
COc1ccccc1-n1cc(C(=O)N(C)Cc2cc(C3CC3)n[nH]2)cn1,-2,-3
CC(=O)O[C@@H](C)C(=O)Nc1cc(-c2onc3c2CCCC3)ccc1C,3,-2
Cc1nc(N)nc(C)c1CC(=O)N1CCCC(Nc2ccccc2)C1 (stereo not drawn),9,0
CCC(C)N=Cc1c(NCc2ccco2)nc2c(C)cccn2c1=O (stereo not drawn),1,1
CN(CC(=O)c1c(N)n(C2CC2)c(=O)[nH]c1=O)c1ccc(F)cc1,1,5
CC(C)C(NC(=O)C1CCCN1S(C)(=O)=O)c1cccs1 (stereo not drawn),-3,-6
CCN1C(=O)C(=Cc2ccc(OC)c(OC)c2)SC1=S,-3,-5
O=c1c[n+]([O-])c2ccccc2n1OCc1c(F)cccc1F,-5,-5
COc1ccc(C=C2N=C(c3cccs3)OC2=O)cc1,1,1
CC1=CC(=O)C2=C(C)C[C@@H]3OC(=O)[C@@H](C)[C@H]3C=C12,2,1

# Further results:
SMILES,NPYLR7 agonist,NPYLR7 agonist max-min
CCCOc1ccc(S(=O)(=O)N(C)C)cc1,13,15
C=CCn1c(SCC(=O)NC(=O)NC)nnc1-c1ccncc1,-3,-5
COc1c(S(=O)(=O)NCc2ccco2)ccc(Cl)c1Cl,1,4
CNC(=O)CN1CCOc2c(O)cc(-c3ccccc3C)cc2C1,5,3
COc1cc(NC(=O)C(C2CCCC2)N2CCN(C(=O)c3ccco3)CC2)cc(OC)c1 (stereo not drawn),-1,6
Cc1nc2ncnn2c(N2CCN(C(=O)CCc3ccccc3)CC2)c1Cc1ccccc1,-7,-6
CCN(CC(=O)NC(C)c1ccc(C)cc1)Cc1noc(C)n1 (stereo not drawn),20,9
CCc1c(C)nc(-c2cccc(F)c2)nc1N1CCN(S(=O)(=O)c2ccc(C)cc2)CC1,-4,12
CCn1c(SCC(=O)Nc2nc(C)cs2)nnc1C1CC1,14,5
CCNc1cc(C)nc(Nc2ccc(NS(=O)(=O)c3cc(Cl)c(C)cc3OC)cc2)n1,-5,1
Cc1cc(C)c(NC(=O)CSc2nc3c(c(=O)n2C)SC(C)C3)c(C)c1 (stereo not drawn),1,-2
O=C(C=Cc1nc2ccccc2o1)Nc1cc(S(=O)(=O)N2CCCCC2)ccc1N1CCOCC1,5,2
O=C(C1CCC1)N(Cc1cccc(F)c1)CC1CC(c2ccccc2F)=NO1 (stereo not drawn),11,23
Cc1cccc(-n2nc(C(C)(C)C)c3c2N(CC(=O)NCC2CCCO2)C(=O)CSC3c2ccc(F)cc2F)c1C (stereo not drawn),12,8
CCn1c(SCc2cccc(I)c2)nnc1-c1c2c(nc3ccccc13)CCC2,0,7
Cc1nn(-c2ccc(Cl)nn2)c2c1C(c1ccc(C(C)C)cc1)CC(=O)N2 (stereo not drawn),-17,-23
CCn1c(C)cc(C(=O)CN2C(=O)C(=O)N(CCC3=CCCCC3)C2=O)c1C,-3,-4
COc1ccccc1-n1cc([C@@H]2C[C@H]3CN(Cc4ccccc4C)C(=O)[C@]34CCCN24)cn1,7,13
O=C(COCc1ccccc1)NCc1cnn2ccccc12,-5,-7
COc1ccc2cc(-c3[nH]ncc3CNC3CCCCC3)ccc2c1,3&-4,3&-6
CCCSc1nc2c(cnn2CCO)c(=O)[nH]1,1,0
CCCc1nnc2c(C(=O)N[C@H](C)C(C)(C)C)cccn12,-7,-12
Cc1ncc2c(c1CNC(=O)Cc1cccs1)CCN(C(=O)c1cccc(C(F)(F)F)c1)C2,8,6
CNC(=O)Cn1cnc2c(nnn2-c2cc(C)cc(C)c2)c1=O,-4,-10
CCC(=O)N(c1nnc(SC(C)C(N)=O)s1)C1CC1 (stereo not drawn),11,10
# Other structures follow.
SMILES,NPYLR7 agonist,NPYLR7 agonist max-min
COc1cccc(CC(=O)Nc2cnc3cnc(-c4cccc(NC(C)=O)c4)cn23)c1,-2,-11
O=C(Cn1nc(-c2ccco2)c2sc(N3CCCC3)nc2c1=O)Nc1ccc2c(c1)OCCCO2,1,1
OCCC1CN(Cc2cccc3nonc23)CCN1CC1CCCCC1 (stereo not drawn),9,2
COCCNC(=O)c1csc(COc2ccc3c(c2)OCO3)n1,-4,-1
Cc1nc2ccc(C(=O)NCc3ccc(N(C)C)cc3)cn2c1N(C)CC1CCCCC1,-5,-8
Cc1noc(C)c1CCC(=O)N1CCC2(CCCN(CCCc3ccccc3)C2)C1 (stereo not drawn),13,5
COc1ccc(C)cc1NCCC(=O)N1CCOc2ccccc2C1,0,-2
Fc1ccc(-n2cc(CNCC3CSCCS3)cn2)cc1 (stereo not drawn),3,-1
CCc1nn2c(=O)cc(CSc3nc(C)cc(=O)[nH]3)nc2s1,8,6
Cc1ccccc1-n1c(-c2ccc(Cl)cc2)cc(C(=O)NC(C)CCc2ccccc2)c1C (stereo not drawn),-10,-16
CCOCCn1ccc2c(NC(=O)c3cc(OC)c(OC)c(OC)c3)c(OC(=O)N(CC)CC)ccc21,-3,-5
CCn1c(C2CCN(C(=O)c3ccc(-c4ccn[nH]4)cc3)CC2)nn(C)c1=O,20,11
CCOc1ccc2ccccc2c1C(=O)NCCn1c(C)cc2ccccc21,0,-2
O=C(CSc1ncnc2c1nnn2Cc1ccccc1)OCc1ccccc1,14,17
CN1CCN(c2ccc(C(=O)NC3CCc4cc(F)ccc43)cc2F)CC1 (stereo not drawn),2,174
COc1cccc(C=C2CS(=O)(=O)c3ccc(Cl)cc3C2=O)c1,4,7
COc1c(F)ccc(C(=O)N2CCn3c(C(N)=O)cnc3C2)c1F,-2,-5
O=C(CCCn1nnnc1CN1CCc2ccccc2C1)NCCn1cccn1,-6,-6
CC(c1nc(Cc2ccccc2)no1)S(=O)c1nccs1 (stereo not drawn),1,-1
C#CCN1CCC(C(=O)NC(C)c2nc(C(C)(C)C)cs2)CC1 (stereo not drawn),-11,-11
CCOc1ccccc1C(=O)NC(C(=O)Nc1cccc(Cl)c1C)C(C)C (stereo not drawn),1,-2
COc1ccc(OC)c(-c2cccc(-c3ccc(NC(=O)c4cnc5c(c(C)nn5C)c4Cl)cc3)n2)c1,4,3
CCCCN(CC(=O)Nc1cc(-c2ccccc2)nn1-c1ccc(F)cc1)C(=O)/C=C/c1ccc([N+](=O)[O-])cc1,-3,3
CCCCc1ncc(CN2C(=O)NC(C)(C3CCNCC3)C2=O)[nH]1 (stereo not drawn),3,2
Cc1cc(NCc2cc(-c3ccccn3)no2)nc(-c2cccnc2)n1,-13,-18
# Carrying on:
SMILES,NPYLR7 agonist,NPYLR7 agonist max-min
COc1ccc(-c2onc3c2CCC3)cc1NC(=O)COc1c(F)c(F)c(F)c(F)c1F,15,28
CCCCCCCC(=O)N1CCN(c2cc(Cl)nc(SCC(=O)NCCCOC)n2)CC1C (stereo not drawn),-7,-3
Fc1ccc(-c2nc3ccc(Br)cn3c2NCc2ccccc2)cc1,0,6
Cc1nc(C)c(-c2ccc(SCC(=O)Nc3cccc(F)c3)nn2)s1,-16,-20
Cc1ccc(Cn2nc(-c3ccco3)c3sc(N4CCOCC4)nc3c2=O)cc1,-2,-8
O=C(NCC1CCCCC1)c1cccnc1Nc1cccc(C(F)(F)F)c1,0,-5
CC(=O)c1c(C)[nH]c(C(=O)COc2ccc(F)c3c2C(=O)CC3C)c1C (stereo not drawn),6,-1
CCc1cc(S(=O)(=O)N2CCN(CCO)CC2)ccc1OC,-7,-8
O=P(c1ccccc1)(c1ccccc1)C(O)c1ccncc1 (stereo not drawn),-1,-4
O=C(CSc1nc(=O)n(CCN2CCOCC2)c2c1CCC2)N1CCc2ccccc21,-2,-5
COC(=O)Cn1c(C(=O)OC)ccc1-c1ccco1,2,-1
